WNV NS2B-NS3 inh: blocks West Nile virus NS2B-NS3 protease activity. WNV NS2B-NS3 protease, fluorogenic substrate Ex360/Em465; stronger effect = lower value. z-score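 (tested at a level between 10 and 100 µM)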. 65,000 tested, 0.18% active. AID 577;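 active means z-score at -3 or under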;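 further: score is relative to mean and spread of the compound wells of a plate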
Target sequence (P06935 1371-1501 limits assumed): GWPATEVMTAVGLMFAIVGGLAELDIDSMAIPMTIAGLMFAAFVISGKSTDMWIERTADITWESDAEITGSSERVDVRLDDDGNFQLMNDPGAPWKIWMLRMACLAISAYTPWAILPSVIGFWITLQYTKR
Target sequence (P06935 1502-1679 limits assumed): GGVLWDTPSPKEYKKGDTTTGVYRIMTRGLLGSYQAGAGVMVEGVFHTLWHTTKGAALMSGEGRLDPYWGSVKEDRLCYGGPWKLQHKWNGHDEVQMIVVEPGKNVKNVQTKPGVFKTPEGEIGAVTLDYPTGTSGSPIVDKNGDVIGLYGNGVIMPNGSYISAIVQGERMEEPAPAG
MT1-MMP reporter: MT1-MMP gene expression reporter suppression – cell-based, luciferase reporter, luminescence (AID 618) | MT1-MMP promoter luciferase reporter cells, luminescence | calls from a first round at 10 µM; hits with a dose series show EC50 in µM | 87,000 tested, 0.62% active;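 active means over half of the reporter light lost at 10 µM or EC50 under 50 µM; inactive means the rest and hits that failed the dose series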;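 further: actives suppress MT1-MMP promoter-driven transcription so potencies describe inhibitors; HT1080 fibrosarcoma cells; overnight exposure; toxic or luciferase-blocking compounds were not removed from the actives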
Hsc70: Hsc70 inhibitors, probe displacement, primary screen, biochemical, fluorescence polarization (AID 568); Hsc70 fluorescence polarization, probe displacement; higher % means a stronger effect; strong numbers were not always called active; one-dose displacement, % at 20 µM; IC50 in µM for titrated hits; 83,000 tested, under 10 active;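 active means displacement above 50% without optical interference and an IC50 on retest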;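 further: ATPase domain with a fluorescein-tagged ATP probe; 0% = vehicle and 100% = excess ADP; read after one hour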
Starred values were filed as active, the others as inactive; i = inactive; . = no result given. Compounds as they come; 0.8% or so of the library scored in one or more.

Results follow in this order: WNV NS2B-NS3 inh | MT1-MMP reporter | Hsc70
COc1cc(C(c2sc3nc(C)nn3c2O)N2CCN(c3ccccc3)CC2)cc(OC)c1OC (stereo not given)
 : 0.6 | i | 0.4%
CC(=O)Nc1c2c(nn1-c1ccc(C)cc1C)CSC2
 : 1.5 | i | -3.0%
Cc1ccc(-n2c(Cn3cnc4ccccc43)nnc2SCC(=O)O)cc1
 : 0.23 | i | -0.1%
O=C(CSc1nc2ccccc2[nH]1)NC(=O)NCc1ccco1
 : 1.5 | i | 2.2%
COc1cc(C)c(C)cc1S(=O)(=O)N1CCN(Cc2ccccc2)CC1
 : -0.11 | i | 6.9%
CCOC(=O)C1=C(C)NC(SCC(N)=O)=C(C#N)C1c1ccncc1 (stereo not given)
 : -0.46 | i | 4.8%
Cc1ccc(C)n1NC(=O)c1cccs1
 : -0.21 | i | -3.8%
CCOCCn1c(COc2ccccc2)nc2ccccc21
 : -0.3 | i | -1.0%
CCCOc1ccc(N2C(=O)CC(N3CCOCC3)C2=O)cc1 (stereo not given)
 : -1.2 | i | -13%
COc1cc(C(=O)N2CCN(S(=O)(=O)c3ccc(C)cc3)CC2)ccc1OCc1c(C)noc1C
 : -0.7 | i | -7.6%
N#Cc1c(NC2CCCCC2)nc(-c2ccco2)c2c1CCCC2
 : . | i | -3.1%
CC(NS(=O)(=O)c1ccccc1)C(c1cccs1)N1CCN(c2ccccc2)CC1 (stereo not given)
 : -0.05 | i | 0.9%
CC(=O)N1CCCc2cc(S(=O)(=O)Nc3ccc(C)cc3C)ccc21
 : . | i | 0.5%
N#CCSc1nnc(-c2ccc(S(=O)(=O)N3CCOCC3)cc2)n1CC1CCCO1 (stereo not given)
 : -0.32 | i | 3.1%
COC(=O)[C@H](CCSC)NC(=O)NCc1ccc(S(N)(=O)=O)cc1
 : -0.5 | i | 0.4%
CCOC(=O)CN1NC2(CCCCC2)NC1=S
 : . | i | -0.5%
COc1ccccc1N(CC(=O)NCc1ccccc1)S(C)(=O)=O
 : 0.59 | i | 2.9%
CC(CCc1ccccc1)NC(=O)C1CCN(S(=O)(=O)N2CCCCC2)CC1 (stereo not given)
 : -0.41 | i | 2.3%
O=C1CN(C(=O)c2ccccc2)c2ccccc2N1
 : 1.2 | i | 0.3%
CCOC(=O)N1CCC(Nc2ncnc3c2cnn3-c2ccc(Cl)cc2)CC1
 : 1.3 | i | 5.4%
Cc1nn2c(C)c(C(=O)Nc3ccccc3)cnc2c1C#N
 : . | i | -1.1%
Cc1cccc(NC(=O)C2CCCN2C(=O)OCC(C)C)c1 (stereo not given)
 : 1.6 | i | 4.0%
Cc1c(C(=O)N2CCCCCC2)oc2ccccc12
 : -0.17 | i | 8.7%
Nc1c(NCc2ccccc2)c2ccccc2oc1=O
 : -0.03 | i | 1.8%
CCSc1ccc2nnc(-c3ccc(F)cc3)n2n1
 : 1.7 | i | 2.9%
Cc1ccc(S(=O)(=O)N(CC(=O)NCc2ccncc2)C2CCCCC2)cc1
 : -0.19 | i | 6.6%
COc1ccc(CC(=O)NCc2ccccn2)cc1OC
 : 1.5 | i | -3.7%
O=C(NCC(c1cccnc1)N1CCN(c2ccccc2)CC1)OCc1ccccc1 (stereo not given)
 : -0.44 | i | -8.9%
O=C(Nc1nc(-c2cccs2)c(-c2ccccc2)s1)c1ccco1
 : -0.13 | i | -6.8%
Cc1cc(N/C(=N\S(=O)(=O)c2ccc(Cl)cc2)c2ccc(F)cc2)no1
 : -0.58 | i | 2.4%
Cc1cc(C(=O)N2CCN(S(C)(=O)=O)CC2)sc1-c1ccccc1
 : -1.7 | i | -0.1%
Cc1ccc(-n2c(SCC(=O)OC(C)C)nnc2-c2ccco2)cc1
 : 1.2 | i | -3.7%
CCOC(=O)C1CCN(C(=O)COc2ccc(S(=O)(=O)NC(C)C)cc2)CC1
 : -0.23 | i | 6.9%
COc1ccc(N2C(=O)C3CCCN3C2c2ccccc2Cl)cc1 (stereo not given)
 : 0.41 | i | -0.5%
C=CCC(CC=C)(C(=O)O)c1ccccc1
 : 2.1 | i | -7.1%
Cc1cccc(NC(=O)Cc2noc3ccccc23)c1
 : . | i | 8.5%
CCOC(=O)c1c(N2C(=O)C3CC(C)=C(C)CC3C2=O)sc(C)c1C (stereo not given)
 : . | i | -2.4%
O=C(CC1SC(=NC2CCCCC2)NC1=O)Nc1ccccc1 (stereo not given)
 : -0.12 | i | 0.0%
CCC1CCCCN1C(=O)COC(=O)c1n[nH]c2ccccc12 (stereo not given)
 : . | i | 3.4%
O=C(O)CSc1nnc(-c2ccc(S(=O)(=O)N3CCCC3)cc2)n1Cc1ccco1
 : 0.61 | i | -0.1%
O=C1NCC(COCc2ccco2)O1 (stereo not given)
 : 0.17 | i | 3.1%
O=C(Nc1ccc2c(c1)nc1n2CCOC1)c1ccccc1
 : -0.93 | i | 3.2%
Cc1csc2nc(CNS(=O)(=O)N(C)C)cn12
 : -0.69 | i | 9.6%
O=C(Nc1ccc2c(c1)OCO2)c1cccc(S(=O)(=O)N2CCCC2)c1
 : -0.42 | i | 3.7%
CCCC(=O)Nc1ccc2c(c1)nc(CN1CCCC1)n2C
 : . | i | -5.5%
CC(C)(C)c1[nH]nc2c1C(c1ccc(OC(=O)c3ccco3)cc1)C(C#N)=C(N)O2 (stereo not given)
 : 0.08 | i | -7.3%
COc1ccc(OC)c(C(c2nnnn2CCc2ccccc2)N2CCN(c3ccccc3)CC2)c1 (stereo not given)
 : -0.51 | i | -3.8%
O=C(Nc1c(C(=O)O)[nH]c2ccccc12)NC1CCCCC1
 : 0.08 | i | 4.6%
Nc1cc(CN2C(=O)c3ccccc3C2=O)cc(Cl)c1O
 : 0.06 | i | -21%
CC(=O)c1cccc(N=C2NC(=O)CS2)c1
 : . | i | -1.5%

Following part:
| Structure | WNV NS2B-NS3 inh | MT1-MMP reporter | Hsc70 |
| --- | --- | --- | --- |
| COc1ccccc1CNC(=O)COC(=O)c1cnccn1 | 0.01 | i | 4.7% |
| CCCCn1c(SCC(=O)N2CCCc3ccccc32)nc2c1c(=O)n(C)c(=O)n2C | 0.04 | i | -4.6% |
| Cn1c(C(=O)OCC(=O)NCc2ccco2)cc2sccc21 | 0.7 | i | 2.8% |
| CCCCN(C(=O)c1cc(OC)c(OC)c(OC)c1)C1=CC2CCC(C1)N2C (stereo not given) | -0.36 | i | -2.2% |
| O=C(CCS(=O)(=O)c1cccc2nonc12)NC1CCCCCC1 | -0.53 | i | -2.2% |
| Cc1ccccc1OCC(=O)Nc1ccc(N2CCN(C(=O)C(C)C)CC2)c(Cl)c1 | 0.54 | i | 2.0% |
| O=C(CC1c2ccccc2Oc2ccccc21)NCc1ccco1 | -0.96 | i | -9.7% |
| CCOC(=O)C1=C(C)NC(C)=C(C(=O)OCC)C1C(=O)OCC(=O)N1CCc2ccccc2C1 | -0.55 | i | 0.5% |
| CC(C)CNc1c(N)c(=O)oc2ccccc12 | . | i | 2.3% |
| Clc1cccc2sc(N3CCCC3)nc12 | -0.85 | i | -5.6% |
| CN1CCN(C2=NC3(CCCC3)C(C#N)C(=O)N2)CC1 (stereo not given) | -0.91 | i | 4.1% |
| Cn1c(CSc2nc3ccccc3s2)nnc1SCC(=O)NCCCN1CCOCC1 | . | i | 4.4% |
| CC1CN(Cc2ccccc2Cl)CC(C)O1 (stereo not given) | . | i | 1.7% |
| COC(=O)c1ccc(Oc2ccc3nncn3n2)cc1 | . | i | -6.6% |
| N[C@@H](Cc1cc(I)c(O)c(I)c1)C(=O)O | . | i | -2.8% |
| O=C(Cn1[nH]c(=O)c2ccccc2c1=O)OCC(=O)N1CCCc2ccccc21 | 0.0046 | i | -3.5% |
| CSC1=NCCN1C(=O)c1ccc(Br)o1 | -0.2 | i | -0.5% |
| Cc1nn(-c2ccccc2)c(Cl)c1/C=C1\N=C(c2ccccc2)OC1=O | . | i | 3.4% |
| CCC(=O)Nc1cc(C(C)C)c(O)cc1C | 1.7 | i | 3.0% |
| Cc1c(C)n(C(=O)CSc2nccn2C)c2ccccc12 | -0.93 | i | 2.4% |
| Cc1ccccc1C(=O)Nc1nncs1 | . | i | -1.3% |
| Cc1nn(Cc2ccc(Cl)c(Cl)c2)c(C)c1NC(=O)c1cc(C2CC2)on1 | -0.66 | i | 2.4% |
| Cc1ccnc(NS(=O)(=O)c2cccs2)c1 | 0.65 | i | -11% |
| CCOC(=O)Cn1c(=O)oc2cc(S(=O)(=O)NCCCc3ccccc3)ccc21 | -0.93 | i | 5.4% |
| CCOC(=O)c1cc(C(=O)c2cc(F)ccc2O)coc1=N | -0.56 | i | 6.6% |
| COc1ccc(C(CC(=O)O)NC(=O)c2cccs2)cc1 (stereo not given) | -2.5 | i | 6.8% |
| Cc1ccc(CNc2ccc(O)cc2)cc1 | 1.3 | i | -2.5% |
| CCN(CC(=O)Nc1ccc2c(c1)OCCO2)c1ccc(S(=O)(=O)N2CCOCC2)cn1 | 1.1 | i | -4.7% |
| COC(=O)c1sccc1Oc1ccc(F)cc1[N+](=O)[O-] | . | i | 2.2% |
| COc1ccc(C(c2nnnn2CC2CCCO2)N2CCC(C(N)=O)CC2)cc1 (stereo not given) | . | i | -0.4% |
| CCOC(=O)C1CCN(C(=O)c2ccc(NC(=O)C3CCCO3)cc2)CC1 (stereo not given) | -0.75 | i | 1.8% |
| O=C1CC(c2ccc(S(=O)(=O)N3CCCCC3)cc2)CN1 (stereo not given) | -0.8 | i | -10% |
| CC1(C)CC(=O)C(C=NCCO)=C(O)C1 | 0.35 | i | 1.7% |
| COc1ccc(CN(C2CCCC2)S(=O)(=O)c2ccc(-n3cnnn3)c(OC)c2)cc1OC | -0.76 | i | -0.7% |
| CS(=O)(=O)c1cccc(C(=O)NCc2ccc(F)cc2)c1 | . | i | 5.4% |
| COc1ccc(CCNC(=O)c2nonc2N)cc1 | . | i | 4.6% |
| COc1cc(C(=O)N2CCC(N3CCCCCC3)CC2)cc(OC)c1OC | . | i | 1.3% |
| COCCCn1c(SCC(=O)Nc2sc3c(c2C#N)CCCC3)nnc1-c1ccncc1 | . | i | -3.7% |
| CCCc1cc(=O)[nH]c(SCC(=O)Nc2ccccc2C#N)n1 | . | i | 1.6% |
| CCNC(=S)NNC(=O)c1csc(C(C)C)c1 | . | i | 2.4% |

The list goes on; the last 5 above are carried over.
| Structure | WNV NS2B-NS3 inh | MT1-MMP reporter | Hsc70 |
| --- | --- | --- | --- |
| COc1ccc(CCNC(=O)c2nonc2N)cc1 | . | i | 4.6% |
| COc1cc(C(=O)N2CCC(N3CCCCCC3)CC2)cc(OC)c1OC | . | i | 1.3% |
| COCCCn1c(SCC(=O)Nc2sc3c(c2C#N)CCCC3)nnc1-c1ccncc1 | . | i | -3.7% |
| CCCc1cc(=O)[nH]c(SCC(=O)Nc2ccccc2C#N)n1 | . | i | 1.6% |
| CCNC(=S)NNC(=O)c1csc(C(C)C)c1 | . | i | 2.4% |
| COCCCN(C(=O)Cn1ncc2c(=O)oc3ccc(C)cc3c21)C(C)c1ccncc1 (stereo not given) | -0.67 | i | 0.0% |
| Cc1ccc2c(c1)c1c(n2C)-c2[nH]ncc2CC1 | . | i | -1.5% |
| CCOc1ccccc1NC(=O)c1cccc(NC(=O)c2ccco2)c1 | 0.49 | i | 5.9% |
| CCC(NC(=O)Cn1cnc2c(=O)n(C)c(=O)n(C)c21)c1ccccc1 (stereo not given) | -1.2 | i | 4.7% |
| COc1nc(N2CCCC2)nc(-n2cc(-c3ccccc3)nn2)n1 | -0.73 | i | -2.3% |
| CCn1c(=O)c(C(=O)NCCc2ccccc2)c(O)c2ccccc21 | 0.62 | i | 5.2% |
| CCOC(=O)N1CCc2c(sc3c2C(=O)NC(c2ccc(-c4ccc(Cl)cc4)o2)N3)C1 (stereo not given) | 0.48 | i | -25% |
| CCOc1ccc(-n2c(SCC(=O)Nc3ccccc3C)n[nH]c2=O)cc1 | . | i | -1.1% |
| O=C(c1cc2c(ccc3ccccc32)o1)N1CCN(c2ncc(C(F)(F)F)cc2Cl)CC1 | . | i | -5.2% |
| C=CCN1C(=O)CSC1=Nc1ccc(O)cc1 | . | i | 8.1% |
| CCCCOc1ccc(/C(O)=C2/C(=O)C(=O)N(CCN(C)C)C2c2ccc(O)c(OC)c2)cc1 (stereo not given) | -0.24 | i | 4.6% |
| CCCCn1c(=NC(=O)c2cccnc2)c(C(=O)OCC)cc2c(=O)n3ccccc3nc21 | . | i | -2.0% |
| CCC(=O)N1CCc2cc(S(=O)(=O)NCCC(=O)Nc3cc(C)cc(C)c3)ccc21 | 0.53 | i | 0.8% |
| Oc1ccc2c(c1)C1CCCC1(N1CCOCC1)O2 (stereo not given) | 0.12 | i | -9.8% |
| O=C(NCCc1ccccc1)C1CCN(S(=O)(=O)c2ccc(-c3nn[nH]n3)cc2)CC1 | -1 | i | -4.7% |
| CCOCCn1c(CN2CCCCC2)nc2c1c(=O)n(C)c(=O)n2C | 1.3 | i | 4.1% |
| Cn1c(CNc2ccccc2)cc(=O)n(C)c1=O | -0.61 | i | 0.2% |
| N#Cc1c(SCC(=O)O)nc(N2CCCCC2)c2c1CCCC2 | 0.17 | i | 1.8% |
| O=C(NC1(C(F)(F)F)NC(=O)N(C2CCCC2)C1=O)C1CC1 (stereo not given) | 0.5 | i | 1.4% |

2 neighbouring entries from above:
| Structure | WNV NS2B-NS3 inh | MT1-MMP reporter | Hsc70 |
| --- | --- | --- | --- |
| N#Cc1c(SCC(=O)O)nc(N2CCCCC2)c2c1CCCC2 | 0.17 | i | 1.8% |
| O=C(NC1(C(F)(F)F)NC(=O)N(C2CCCC2)C1=O)C1CC1 (stereo not given) | 0.5 | i | 1.4% |

Screens (PubChem)
